Screening results: PubChem, ICCB-Longwood Screening Facility, Harvard Medical School
Mtb MbtI inh: blocks the Mycobacterium tuberculosis siderophore enzyme MbtI | P9WFX0 | purified MbtI enzyme, fluorescence intensity read-out | inhibition, %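 (about 17 µg/mL by stock and volumes)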 | actives 0.89% (n = 100,000) | AID 493033;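 active = above 50% in both replicates, above 80% if mildly self-fluorescent; inactive = the rest, strongly fluorescent compounds included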;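 also: 0% = mean of negative and 100% = mean of positive controls; one replicate is shown; some compounds called inactive have numbers as strong as hits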
Target sequence (P9WFX0 whole entry, looked up): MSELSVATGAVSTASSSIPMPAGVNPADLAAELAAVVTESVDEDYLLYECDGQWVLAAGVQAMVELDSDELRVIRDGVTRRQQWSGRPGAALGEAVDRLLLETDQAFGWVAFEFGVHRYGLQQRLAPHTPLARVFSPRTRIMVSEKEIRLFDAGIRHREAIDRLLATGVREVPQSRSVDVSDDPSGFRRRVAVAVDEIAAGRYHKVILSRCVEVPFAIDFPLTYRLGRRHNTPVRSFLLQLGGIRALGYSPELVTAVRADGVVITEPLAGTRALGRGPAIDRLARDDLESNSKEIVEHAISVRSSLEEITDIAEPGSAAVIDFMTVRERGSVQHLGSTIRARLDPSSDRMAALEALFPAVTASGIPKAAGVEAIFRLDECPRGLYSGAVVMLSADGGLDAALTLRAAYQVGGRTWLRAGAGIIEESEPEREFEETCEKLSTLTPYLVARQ
Active calls of the source: *.

SMILES	Mtb MbtI inh
CC(=O)Oc1ccc(N2C(=O)C3ON(c4ccccc4)C(c4ccc(F)cc4)C3C2=O)cc1 (configuration not stated)	-9
N#Cc1nn(-c2ccccc2)nc1N1CCCCC1	-61
COc1ccc(/C=C/C(=O)Nc2ccc3nc(N4CCCCC4)cc(C)c3c2)cc1	-21
COc1cccc(Oc2nnnn2-c2ccccc2)c1	-9
O=C(CCS(=O)(=O)c1cccc2nonc12)NCc1ccc(Cl)cc1	0
CC(C)CN(CC(C)C)c1nnc(N)s1	-12
COC(=O)c1cc2oc3ccccc3c2n1CC(=O)NCc1ccco1	-1
Nc1nc(-c2nc3ccccc3[nH]2)cs1	50
O=C(O)c1ccc(NCc2ccco2)cc1	-19
CC(=O)Nc1ccc2c(c1)C1C=CCC1C(C(=O)O)N2 (configuration not stated)	9
CCCOc1ccc(-c2nc(N)n[nH]2)cc1	-9
O=c1oc2ccc(Br)cc2cc1-c1nnc(-c2ccccc2)o1	-10
COC(=O)c1cccc(NC(=O)COC(=O)c2ccc(N3C(=O)CCC3=O)cc2)c1	-17
C=CCC(NCc1ccccc1)c1ccccc1 (configuration not stated)	-9
O/N=C/c1c[nH]c2ccccc12	-2

The closing 7 records of the section above open the next one.
SMILES	Mtb MbtI inh
O=C(O)c1ccc(NCc2ccco2)cc1	-19
CC(=O)Nc1ccc2c(c1)C1C=CCC1C(C(=O)O)N2 (configuration not stated)	9
CCCOc1ccc(-c2nc(N)n[nH]2)cc1	-9
O=c1oc2ccc(Br)cc2cc1-c1nnc(-c2ccccc2)o1	-10
COC(=O)c1cccc(NC(=O)COC(=O)c2ccc(N3C(=O)CCC3=O)cc2)c1	-17
C=CCC(NCc1ccccc1)c1ccccc1 (configuration not stated)	-9
O/N=C/c1c[nH]c2ccccc12	-2
CN(c1ccccc1)C1(O)C(=O)c2ccccc2C1=O	-19
Cc1cc(N2CCOCC2)c(F)cc1C(=O)c1ccccc1	-11
CN(C)Cc1cc(CN(C)C)c(O)c(CN(C)C)c1	2
CN(C)CCn1c(C(=O)Nc2ccccc2)cc2ccccc21	0
O=C(Nc1ccc2nsnc2c1)c1ccccc1	-31
O=C(c1ccco1)N1CCNCC1	-13
O=C(O)c1ccccc1-c1ccccc1C(=O)Nc1c[nH]c(=O)[nH]c1=O	-10
CN1C(C)(C)CC(NC(=O)c2ccco2)CC1(C)C	4
O=C1CCC(=O)N1c1cccc(-c2nc3ccccc3o2)c1	-10
CC(C)OC(=O)CN1CCN(c2ccc(Cl)cc2)CC1	-15
COc1ccc2cc(C=NCc3ccc(C)cc3)c(N3CCCCC3)nc2c1	35
CC(C)NCCc1c[nH]c2ccccc12	5
Cc1cc(=O)oc2cc(OCC(=O)NCC3CCCO3)ccc12 (configuration not stated)	-19
CN(CCN)Cc1ccccc1	-2
CCC(C(=O)NCc1ccco1)n1nc(-c2ccc(OC)cc2)ccc1=O (configuration not stated)	-12
CCCC(=O)Nc1nnc(-c2cccc(OCC)c2)s1	-4
CCOC(=O)c1ccc(NC(=O)c2cc3cc(Cl)ccc3oc2=N)cc1	-17
CCOC(=O)C1=C(C)NC2=C(C(=O)C(C(=O)OC)C(C)C2)C1c1ccccc1 (configuration not stated)	-78
COC(=O)c1oc2ccc(OC)cc2c1NC(=O)CCCN1C(=O)c2ccccc2C1=O	3
O=C(O)CC(Cn1cnnn1)c1ccccc1 (configuration not stated)	-4
Nc1cccc(CCc2cccnc2)c1	2
COc1ccc(CNc2nccs2)c(O)c1	15
O=C(OCc1cnc(-c2ccccc2)o1)c1ccco1	-9
NS(=O)(=O)c1ccc(NC(=O)CSc2ccccn2)cc1	-18
O=S(=O)(Cc1ccccc1)N1CCCc2ccccc21	-6
Cc1cc(C)c2cc3c(ccn3C3OC[C@H](O)[C@H](O)[C@H]3O)cc2n1 (some centres not stated)	-22
COc1ccc2nc(Cl)c3nnnn3c2c1	13
O=C(c1ccc(Cn2cc(Br)cn2)o1)n1cccn1	-1
O=C(Cc1ccc(-n2cccc2)cc1)NCc1cccs1	-15
Cc1ccc(-c2cccc(=O)o2)cc1	-8
Cc1ccc(OCCn2c(SCCO)nc3c(N)ncnc32)cc1	-4
Fc1ccc(CN2CCC(N3CCc4ccccc4C3)CC2)cc1	1
CC(C)C(=O)N=C1NC(=O)CS1	0
O=C(Nc1cccc(O)c1)c1cccc(S(=O)(=O)Nc2cccc(O)c2)c1	0
CC1CCN(Cc2c(O)ccc3ccccc23)CC1	-176
Nc1ccc(Oc2cccc3cccnc23)c(Cl)c1	-6
Cc1cc(NC(=O)c2ccco2)no1	-7
O=C1CCC(C2CCC(=O)CC2)CC1	-13
CCOC(=O)C1(CC(=O)c2ccc(F)cc2)C(=O)Oc2ccccc2C1c1ccccc1 (configuration not stated)	-17
Cc1ccc(C2NC(c3ccc(C)cc3)C(C)C(=NO)C2C)cc1 (configuration not stated)	-16
CS(=O)(=O)NCc1ccccc1	-12
Cc1ccc(CNS(=O)(=O)c2cn(C)cn2)cc1	-6
Clc1ccc(-n2cccc2)cc1	-7
CCN(CC)c1ccc2nc3c(nc2c1)C(=O)c1ccccc1C3=O	-3
Cc1c(C)c2c(=O)n(-c3ccccc3)[nH]c2[nH]c1=O	66*
CC1CCCC(C(=O)OCc2ccccc2)N1 (configuration not stated)	-6
CCOC(=O)COc1ccc(S(=O)(=O)NCc2ccncc2)cc1	-7
CN(c1ccc2nc3ccccc3c(=O)n2n1)C1CCCCC1	-1
COc1ccc(Cc2n[nH]c(=O)c3ccccc23)cc1OC	9
O=C1CN(C(=O)Cc2ccc(F)cc2)C(c2ccc(F)cc2)c2cc(F)ccc2N1 (configuration not stated)	1
Cc1ccc(CSCC(=O)O)cc1	0
NC(=O)Cn1c(CCCCc2nc3ccccc3n2CC(N)=O)nc2ccccc21	-2
COc1cccc(C(=O)NCc2cccnc2)c1	-4
C/C(Cl)=C/CN1CCOCC1	-1
COc1ccc2ncc(OC(C)=O)cc2c1	55
OCCSc1c(F)c(F)c(SCCO)c(F)c1F	2
C=CCC(O)(CCN1CCCCC1)c1ccccc1 (configuration not stated)	1
COc1ccc(C(=O)O)cc1S(=O)(=O)N1CC(c2ccccc2)CC1=O (configuration not stated)	0
CCOc1ccc(-n2cc(-c3ccccc3)c3c(SCC)ncnc32)cc1	35
COc1ccc(C(=O)c2coc3ccc(O)c(CN4CCCCC4)c23)cc1	-12

Additional records
SMILES	Mtb MbtI inh
Cc1ccc(Nc2ncc(C(=O)NCCC3=CCCCC3)c3ccccc23)cc1Cl	109
CN(CC(=O)NCc1cccc(F)c1)C(=O)c1ccco1	-15
O=C(O)CSc1nc(-c2ccccc2)c(-c2ccccc2)[nH]1	77
CCCCn1c(=N)n(CCO)c2ccccc21	-3
O=C(C1CCCN(Cc2ccccc2)C1)N1CCCCCC1 (configuration not stated)	-2
CCCn1c2ccccc2c2nnc(SCOC(=O)CN3C(=O)c4ccccc4C3=O)nc21	-15
CC(C)(C)NS(=O)(=O)c1cccc2nsnc12	3
CC(C)N1CCCC(C(=O)N2CCCCCC2)C1 (configuration not stated)	-10
Cc1nc(N)sc1Cc1ccc(O)cc1	6
O=C(c1ccccc1)C(C(=O)c1ccccc1)C(=O)c1ccccc1	-3
COC(=O)c1oc2ccc(Br)cc2c1NC(C)=O	4
O=c1[nH]c2c(oc3ccc(Cl)cc32)c(=O)n1-c1ccccc1	-352
CC(=O)NC(C)Cc1c(C(=O)O)[nH]c2ccccc12 (configuration not stated)	-28
Cc1ccc2occ(C(=O)c3ccccc3Cl)c(=O)c2c1	1
N=c1n(CCO)c2ccccc2n1CCN1CCCCC1	-3

Overlap with the part before: eight compounds, then new ones.
SMILES	Mtb MbtI inh
CC(C)N1CCCC(C(=O)N2CCCCCC2)C1 (configuration not stated)	-10
Cc1nc(N)sc1Cc1ccc(O)cc1	6
O=C(c1ccccc1)C(C(=O)c1ccccc1)C(=O)c1ccccc1	-3
COC(=O)c1oc2ccc(Br)cc2c1NC(C)=O	4
O=c1[nH]c2c(oc3ccc(Cl)cc32)c(=O)n1-c1ccccc1	-352
CC(=O)NC(C)Cc1c(C(=O)O)[nH]c2ccccc12 (configuration not stated)	-28
Cc1ccc2occ(C(=O)c3ccccc3Cl)c(=O)c2c1	1
N=c1n(CCO)c2ccccc2n1CCN1CCCCC1	-3
O=C(Nc1ccccc1)c1ccc2c3c(onc13)-c1ccccc1C2=O	2
Cc1cccc(OCC(=O)Nc2ccc3nc(N4CCCCC4)cc(C)c3c2)c1	107
O=C(NC1CCCCC1)C1c2cccn2CC(=O)N1Cc1ccc2c(c1)OCO2 (configuration not stated)	-10
CCC(=O)Nc1cc(C(=O)O)ccc1Sc1ccccc1	3
CCOc1ccc(NC(=O)C2CSC(c3ccncc3)=N2)cc1 (configuration not stated)	-4
CN(CC(=O)O)S(=O)(=O)c1ccc2c(c1)OCCO2	-11
O=C(O)CC(c1ccccc1)c1ccco1 (configuration not stated)	-5
O=c1c(Cl)c(Cl)cnn1-c1ccccc1	-13
CCN1CCN(CCN)CC1	-3
CCCC(=O)c1ccc(O)cc1	1
COC(=O)c1ccccc1NC(=O)C1COc2ccccc2O1 (configuration not stated)	-12
O=C(Cc1ccccc1)Nc1ccc(Cc2ccncc2)cc1	-4
CN(C)S(=O)(=O)N1CCc2ccccc2C1	8
Cc1ccc(C(C(=O)NC2CCCCC2)N(C)c2ccccc2)cc1 (configuration not stated)	-2
CC(C(=O)NCc1ccc2c(c1)OCO2)C1Sc2ccccc2NC1=O (configuration not stated)	-5
Cc1ccc(S(=O)(=O)N2CCCC2CO)cc1 (configuration not stated)	-12
CCCCN(C)C(=O)C1c2ccccc2C(=O)N(C)C1c1ccc(OC)cc1 (configuration not stated)	-4
COc1ccc(C2C(C(=O)NCCCN3CCCCCC3)CCC(=O)N2c2ccc(OC)cc2)cc1 (configuration not stated)	2
CCOC(=O)CSc1nc(N)c2c3c(sc2n1)CCCC3	-4
CC(=O)Nc1[nH]c2ccccc2c1O	-4
CCc1cc2c(NCCCC(=O)O)ncnc2s1	-3
C=CCn1c(SCC(=O)NC(C)(C)C)nnc1-c1ccco1	-6
C=CCn1c(=O)n(CC=C)c2cc3n[nH]nc3cc21	51
COCCN1C(=O)c2ccccc2C(C(=O)N2CCN(c3ccccn3)CC2)C1c1ccc(F)cc1 (configuration not stated)	-15
CCOC(=O)c1nn(-c2ccc(C)cc2)c(=O)c2c(N)scc12	4
COc1ccc2oc(=O)sc2c1	21
CCCc1nc2c(sc3nc4c(cc32)COC(C)(C)C4)c(=O)o1	-41
CCCC1CC(CSc2nc3ccccc3[nH]2)OC1=O (configuration not stated)	-8
O=C(O)C1(c2ccccc2)CCN(Cc2ccccc2)CC1	-4
Cc1nc(-c2ccccc2O)n(-c2ccccc2)n1	-6
NC1(c2cccc(Cl)c2)CCC1	-4
O=C(Nc1ccc(O)c(-c2nc3ccccc3o2)c1)c1ccccc1	-1
Nc1cc(=O)[nH]c(SCCC(=O)O)n1	-8
CCOC(=O)CCc1c(C)n(CC)c2cc(-c3ccccc3OC)nn2c1=O	-17
O=C(Nc1nc(-c2ccc3c(c2)OCO3)cs1)c1cc2ccccc2oc1=O	-14
O=C(Nc1ccc(S(=O)(=O)N2CCCCCC2)cc1)c1nc2ncccn2n1	18
O=C(O)C1CCC(CNS(=O)(=O)c2ccccc2)CC1 (configuration not stated)	-4
O=c1ccnc(SCc2ccc(Br)cc2)[nH]1	0
O=C(Nc1nnc(NC(=O)c2ccccc2O)s1)c1ccccc1O	-26
CC(C)(O)C#Cc1ccc(C(=O)NCc2ccccc2)s1	3
Cc1ccc(Nc2nc(=O)c3cccnc3s2)cc1	-11
CN1CCN(CC#CCC(O)(c2ccccc2)C2CCCC2)CC1 (configuration not stated)	-14
c1ccc(Nc2ccccn2)nc1	1
CCN(CC)c1c(CN2CCCC2)c(=O)oc2ccccc12	-11
Cc1cccc(C)c1OCc1nnc2c3cnn(-c4ccccc4)c3ncn12	-5
O=C(c1ccccc1)N1CCCOC1c1ccccc1 (configuration not stated)	-19
NC#Cc1cnn(-c2ccccc2)n1	65
Cc1ccc(S(=O)(=O)CC(=O)NC2CC2)cc1	-12
Cc1cc(Cl)cc(C)c1OCCn1ccnc1	-1
CC1=CC(C)C2COC(c3ccc4c(c3)OCO4)C1C2C (configuration not stated)	-7
CCc1cccc(NC(=O)CSCCc2ccccn2)c1	-4
CC(C)CCNc1cc(=O)n(C)c(=O)n1C	0
CCCc1cc2c(=O)c(-c3ccccn3)coc2cc1OC	6
CC12CCOC1N(c1ccccc1)c1ccccc12 (configuration not stated)	-8
O=C(Nc1ccc2[nH]c(=O)[nH]c2c1)c1c(F)c(F)c(F)c(F)c1F	-5
O=C(O)C(O)(c1ccccc1)C1CCCCC1 (configuration not stated)	16
Cc1ccc(C(=O)O)cc1-n1c(C)ccc1C	51
Cc1cc(=O)n(-c2ccc(O)cc2)[nH]1	-3
CC(NC(=O)c1cccnc1)C(=O)N1CCCCC1 (configuration not stated)	-23
CCOC(=O)CCCc1sc(N)nc1-c1[nH]c(=O)[nH]c1C	45

Continuation:
SMILES	Mtb MbtI inh
Cc1c(CCCN)c2ccccc2n1Cc1ccccc1	5
O=c1c2ccccc2nc(-c2ccccc2)n1-c1ccccc1O	4
O=c1c2ccccc2nc2ccc(NCc3ccco3)nn12	-4
CC1(C)CC(CCO)CC(C)(C)N1	-6
O=C(O)C1(NCc2ccc(F)cc2)CCCCC1	-6
Cc1ccc(NC(=O)C(c2ccccc2)N2CCc3ccccc32)cc1 (configuration not stated)	5
C=CCn1c(SCC(=O)OCC)nc2sc3c(c2c1=O)CC(C)(C)SC3	0
N#Cc1c(N)nc2c(c1C(=O)OCCO)CCC2	-334
OC(CCN1CCOCC1)c1ccccc1 (configuration not stated)	-5
Cc1c(C(=O)O)oc2c1-c1[nH]ncc1CC2	6
COc1ccc(-c2occ(C(=O)O)c2C(=O)O)cc1	-30
CNCCn1ccc2ccccc21	-14
CN(CC(=O)O)c1ccccc1C(=O)O	-10
Cc1cc(C)n(CCO)c(=O)n1	8
COc1cc2c(cc1OC)CN(C(=O)C(C)(C)C)CC2	-7
O=C(O)C1Cn2c(nc3c(c2=O)C2(CCCC2)Cc2ccccc2-3)S1 (configuration not stated)	-14
Cc1cc2c(C)nc(-c3ccccc3)nc2o1	-2
CC1(C)CC(CCNC(=O)c2ccc(-n3cnnn3)cc2)CC(C)(C)N1	-3

Not all compounds are listed (hit frequency here may not be typical).
